Compound activity as filed in PubChem BioAssay.
MARV entry inh: inhibitors of Marburg virus binding or cell entry; Marburg virus pseudotyped entry inhibition, cell reporter; control for the full effect not named in the record; about a third of the inactives were read at about 46 µM; Potency, µM (top dose mostly 37.8 µM), without a hit: top-dose activity change, negative = inhibition, hits mostly inhibitors; 300,000 compounds, 1.8% hits; AID 540276; active = well fitted inhibition curve with a large enough effect; inconclusive = small, poorly fitted or top-dose-only effect, or effect the other way; inactive = flat fitted curve, though single readings scatter; tested in HEK293 cells; about a fifth of its hits are not listed in these tables; further: on the % scale 0 is the no-effect control and ±100 the full control effect; luciferase read-out
Cruzain noTriton: blocks cruzain activity in detergent-free assay; P25779; 200,000 compounds, 2.3% hits; purified cruzain, Z-FR-AMC fluorescence, no detergent; Potency, µM, without a hit: max response, negative = inhibition, hits mostly inhibitors; active means well fitted curve in the direction sought with a large enough effect; inconclusive means small, poorly fitted or top-dose-only effect, or another doubt; inactive means no such curve, though single readings can be large; an effect the other way counts as inactive or inconclusive;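 further: plate controls were enzyme without inhibitor for no effect and buffer without enzyme for full effect; nearly all actives have a fitted effect of over 40% in size; top concentration of the series not given in the record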
Target sequence (P25779 123-467 limits assumed): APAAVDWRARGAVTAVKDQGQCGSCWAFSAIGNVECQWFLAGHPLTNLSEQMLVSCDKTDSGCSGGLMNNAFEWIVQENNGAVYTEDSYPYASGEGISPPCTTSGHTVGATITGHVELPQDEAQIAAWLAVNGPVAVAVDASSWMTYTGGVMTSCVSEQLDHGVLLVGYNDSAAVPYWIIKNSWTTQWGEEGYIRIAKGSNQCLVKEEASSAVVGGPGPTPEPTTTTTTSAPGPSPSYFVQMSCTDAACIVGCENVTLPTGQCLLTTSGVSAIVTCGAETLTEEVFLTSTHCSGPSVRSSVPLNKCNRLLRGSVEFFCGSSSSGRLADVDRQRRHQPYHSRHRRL
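Purified cruzain at 1.5 nM, pre-incubated 15 min with compound at room temperature in 100 mM sodium acetate pH 5.5, 5 mM DTT, 0.00005% Triton X-100. Reaction started with 2 uM Z-FR-AMC; AMC fluorescence increase over 60 s gives rate.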
Cruzain inh Det: inhibitors of Trypanosoma cruzi cruzain with detergent | AID 1478 | purified cruzain, Z-FR-AMC fluorescence, 0.01% Triton | Potency, µM, for the others: max response, negative = inhibition, most hits filed as inhibitors | 200,000 compounds, 0.43% hits; active means well fitted curve in the direction sought with a large enough effect; inconclusive means small, poorly fitted or top-dose-only effect, or another doubt; inactive means no such curve, though single readings can be large; an effect the other way counts as inactive or inconclusive;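 further: plate controls were neutral wells for no effect and buffer without enzyme for full effect; nearly all actives have a fitted effect of over 40% in size; top concentration of the series not given in the record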
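Z-FR-AMC hydrolysis (2 uM substrate) by cruzain (1.5 nM) monitored kinetically at ex 360/em 450 nm after 15 min room-temperature compound exposure; 0.01% Triton X-100, pH 5.5, 5 mM DTT.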
Lassa entry inh: Lassa virus entry inhibition. AID 540256. 300,000 compounds, 1.2% hits. Lassa virus pseudotype entry inhibition, cell reporter; control for the full effect not named in the record. Potency, µM (titrated, usually from 37.9 µM), without a hit: at the highest dose activity change, negative = inhibition, most hits filed as inhibitors; active means well fitted inhibition curve with a large enough effect; inconclusive means small, poorly fitted or top-dose-only effect, or effect the other way; inactive means flat fitted curve, though single readings scatter; tested in HEK293 cells; further: on the % scale 0 is the no-effect control and ±100 the full control effect; nearly all actives have a fitted effect of over 50% in size; luciferase read-out
SARS PLP yeast: inhibitors of SARS-CoV papain-like protease in yeast | S. cerevisiae expressing SARS-CoV PLpro, growth rescue; control for the full effect not named in the record | Potency, µM (top dose mostly 32.9 µM), without a hit: at the highest dose activity, positive = growth rescue | 330,000 compounds, 0.19% hits | AID 485353; further: 0% is about no effect; nearly all actives have a fitted effect of over 55% in size; growth read by luminescence after 48 h
RE007 growth inh: less growth of the S. pombe RE007 Vpr strain; S. pombe RE007 Vpr strain, BacTiter-Glo ATP luminescence, 24 h; control for the full effect not named in the record; Potency, µM (highest dose often 92.2 µM), for inactives: at the highest dose activity change, negative = less growth; 360,000 compounds, 0.21% hits; AID 651644; active = well fitted falling curve with a large enough effect; inconclusive = small, poorly fitted or top-dose-only effect; inactive = no such curve, though single readings can be large or run the other way;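 further: on the % scale 0 is the no-effect control and ±100 the full control effect; nearly all actives have a fitted effect of over 50% in size; the assay follows cell death caused by Vpr and the record does not say whether a fall means rescue or toxicity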
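Fission yeast RE007 carrying one integrated HIV-1 vpr copy, seeded at OD 0.01 in PMG+AL medium with 23 nL pinned compound. Grown 24 h at 30 degrees; viability read by BacTiter-Glo luminescence after 5 min.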
NS1 function inh: blocks influenza NS1 protein function. S. cerevisiae slowed by influenza A NS1, growth recovery by OD600. Potency, µM (doses to about 46.1 µM), for inactives: at the top dose activity, positive = more growth. 270,000 compounds, 0.4% hits. AID 2326; further: actives are rising curves; nearly all actives have a fitted effect of over 50% in size
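In this qHTS, NS1 from influenza A is expressed in budding yeast, where it slows growth. Cells are switched from glucose to 2% galactose medium (pH 6.0, -URA), treated with compound, and growth recovery is read at OD600.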
2A StopGo: FMDV 2A StopGo reporter, luciferase signal. human cells with a luciferase reporter of 2A StopGo recoding; control for the full effect not named in the record. 410,000 compounds, 1.2% hits. Potency, µM (top dose mostly 57.9 µM), for inactives: at the highest dose signal change, negative = less light; active = well fitted falling curve with a large enough effect; inconclusive = small, poorly fitted or top-dose-only effect; inactive = no such curve, though single readings can be large or run the other way; tested in HEK293T cells; further: on the % scale 0 is the no-effect control and ±100 the full control effect; nearly all actives have a fitted effect of over 45% in size; luciferase light after 4 h
The depositor's hits bear a star; [ ] = dose if it differs, or a comment. Unless noted, the call rests on the fitted dose curve; in most records, active means well fitted rising curve with a large enough effect; inconclusive means small, poorly fitted or top-dose-only effect; inactive means no such curve, though single readings can be large or run the other way. Potency means the concentration at half of the fitted maximal effect. Hits appear at their usual frequency; about 4.8% have a hit in one of these screens.

How did CCOC(=O)N1CCN(c2nc(-c3cccs3)nc3ccccc23)CC1 do in these assays?
MARV entry inh: inconclusive; Lassa entry inh: inconclusive; SARS PLP yeast: -12%; RE007 growth inh: -14%; NS1 function inh: -33%; 2A StopGo: -20%

Results for O=C(Nc1cccc(Cl)c1)c1ccc(=O)[nH]n1 ?
MARV entry inh: 17%; Lassa entry inh: 12%; SARS PLP yeast: 1%; RE007 growth inh: 2%; NS1 function inh: 3%; 2A StopGo: 17%

How did O=C(CC(=O)N/N=C\c1c(Cl)cccc1Cl)NCc1ccccc1 do in these assays?
MARV entry inh: inconclusive; Cruzain noTriton: -3%; Cruzain inh Det: 5.6%; Lassa entry inh: -27%; SARS PLP yeast: 1%; RE007 growth inh: 11%; NS1 function inh: 9%; 2A StopGo: -6%

How did CC(O)(Cc1cccnc1)c1cccs1 (stereo not drawn) do in these assays?
MARV entry inh: 9%; Lassa entry inh: 2%[46.1 µM]; RE007 growth inh: 15%; 2A StopGo: -17%

Results for COc1cccc2cc(-c3cc(=O)oc4cc(C)c(OCC(C)=O)cc34)oc12 ?
SARS PLP yeast: 13%; RE007 growth inh: 5%; NS1 function inh: 16%; 2A StopGo: -24%

What do the screens show for `Cc1ccc(/C=N/NC(=O)CN2CCN(Cc3ccccc3)CC2)s1`?
MARV entry inh: inconclusive; Lassa entry inh: 2%[46.1 µM]; SARS PLP yeast: 0%; RE007 growth inh: -4%; NS1 function inh: -4%; 2A StopGo: -23%

Results for Cc1ccccc1NC(=O)CN1C(=O)c2ccccc2C1=O ?
MARV entry inh: 6%[46.1 µM]; Lassa entry inh: 0%[46.1 µM]; SARS PLP yeast: 4%; RE007 growth inh: 29%; NS1 function inh: 13%; 2A StopGo: -2%

Results for N#C/C(=N\Nc1ccc(Cl)cc1)C(N)=S ?
MARV entry inh: inconclusive; Lassa entry inh: inconclusive; SARS PLP yeast: -20%; RE007 growth inh: -6%; NS1 function inh: -66%; 2A StopGo: -20%

What do the screens show for `O=C1NC(=O)C2C1C(c1ccccc1)N1C3C(=O)NC(=O)C3C(c3ccccc3)N21` (stereo not drawn)?
MARV entry inh: 7%[46.1 µM]; Cruzain noTriton: -8%; Cruzain inh Det: 7.2%; Lassa entry inh: -2%; SARS PLP yeast: 16%; RE007 growth inh: 3%; NS1 function inh: -9%; 2A StopGo: 4%

Results for Cc1ccc(N2C(=O)c3cccc4c(N5CCN(C)CC5)ccc(c34)C2=O)c2cccnc12 ?
MARV entry inh: inconclusive; Cruzain noTriton: -6%; Cruzain inh Det: 2.8%; Lassa entry inh: 0%; SARS PLP yeast: 5%; RE007 growth inh: -1%; NS1 function inh: 0%

How did CC1Nc2ccccc2C(=O)N1NC(=O)c1ccc(Br)cc1 (stereo not drawn) do in these assays?
MARV entry inh: 5%[46.1 µM]; Lassa entry inh: -7%; SARS PLP yeast: -2%; RE007 growth inh: 1%; 2A StopGo: 7%

How did CCOC(=O)C1(CCCc2ccccc2)CCN(C(=O)CCn2cnnn2)CC1 do in these assays?
SARS PLP yeast: 0%; RE007 growth inh: 14%; NS1 function inh: -13%; 2A StopGo: -6%

How did CCc1cc(=O)n2[nH]c(C)c(-c3ccccc3OC)c2n1 do in these assays?
Cruzain noTriton: -3%; Cruzain inh Det: 3.7%; SARS PLP yeast: 8%; RE007 growth inh: -8%; NS1 function inh: -5%; 2A StopGo: -16%

How did COc1ccccc1C(=O)Nc1ccc(OCc2cc(=O)n3cccc(C)c3n2)cc1 do in these assays?
Cruzain noTriton: 11%; Cruzain inh Det: 1.4%; Lassa entry inh: 6%[46.1 µM]; 2A StopGo: -19%

How did CC(C)c1nnc(NC(=O)c2ccc(S(=O)(=O)N3CCOCC3)cc2)s1 do in these assays?
Cruzain noTriton: -28%; Cruzain inh Det: 1.0%; SARS PLP yeast: -9%; RE007 growth inh: 16%; NS1 function inh: -10%; 2A StopGo: -8%

How did CCCOC(=O)NC(CC)COC(=O)Nc1cccc(C)c1C (stereo not drawn) do in these assays?
MARV entry inh: -8%; Cruzain noTriton: inconclusive; Cruzain inh Det: 2.9%; Lassa entry inh: -7%; SARS PLP yeast: -4%; RE007 growth inh: -15%; NS1 function inh: -4%; 2A StopGo: -18%

Results for CC(=O)CSc1ncnc2sc3c(c12)CCC(C)C3 (stereo not drawn) ?
MARV entry inh: -21%; Lassa entry inh: 2%; SARS PLP yeast: 3%; RE007 growth inh: -24%; NS1 function inh: 7%; 2A StopGo: 31%[activator]

How did CCC(=NCC1CCCO1)c1c(O)[nH]c(=O)[nH]c1=O (stereo not drawn) do in these assays?
MARV entry inh: 5%; Cruzain noTriton: -3%; Cruzain inh Det: -0.7%; Lassa entry inh: 20%; SARS PLP yeast: -1%; RE007 growth inh: 28%; NS1 function inh: 0%; 2A StopGo: -9%

Results for CCOC(=O)C1CCCN(C(=O)C(C)(C)Oc2ccc(Cl)cc2)C1 (stereo not drawn) ?
MARV entry inh: -2%[46.1 µM]; Lassa entry inh: 6%; SARS PLP yeast: 1%; RE007 growth inh: 5%; NS1 function inh: -1%; 2A StopGo: 0%

Results for COc1ccccc1/C=N/OCC(=O)NCc1ccc2c(c1)OCO2 ?
MARV entry inh: 7%; Cruzain noTriton: 5%; Cruzain inh Det: 0.3%; Lassa entry inh: 15%; SARS PLP yeast: inconclusive; RE007 growth inh: -4%; NS1 function inh: -12%; 2A StopGo: -13%

Results for CCOC(=O)Cc1csc(N/N=C/c2ccc(C(F)(F)F)cc2)n1 ?
MARV entry inh: -29%; Cruzain noTriton: -29%; Cruzain inh Det: -5.3%; Lassa entry inh: inconclusive; SARS PLP yeast: 8%; RE007 growth inh: 0%; NS1 function inh: 12%; 2A StopGo: inconclusive

How did CCc1nc2cccnc2n1-c1ccc(CC(=O)Nc2ccc(C)cc2)cc1 do in these assays?
Cruzain noTriton: 2%; Cruzain inh Det: -9.7%; Lassa entry inh: -21%[46.1 µM]; 2A StopGo: inconclusive

What do the screens show for `CC1(C)CC(=O)C(C=Nc2cccnc2)=C(O)C1`?
MARV entry inh: 22%; Cruzain noTriton: -8%; Cruzain inh Det: 0.0%; Lassa entry inh: -5%; SARS PLP yeast: -5%; RE007 growth inh: inconclusive; NS1 function inh: -3%; 2A StopGo: -2%

Results for COc1cc(CNCCN2CCOCC2)ccc1OCc1ccccc1Cl ?
MARV entry inh: inconclusive; Cruzain noTriton: -2%; Cruzain inh Det: 6.5%; Lassa entry inh: inconclusive; SARS PLP yeast: -1%; RE007 growth inh: 10%; NS1 function inh: -4%; 2A StopGo: -15%

What do the screens show for `CC(NC(=O)/C(=C\c1ccco1)NC(=O)c1ccco1)C(=O)O` (stereo not drawn)?
MARV entry inh: 10%; Lassa entry inh: 0%; SARS PLP yeast: 0%; RE007 growth inh: 19%; NS1 function inh: 1%; 2A StopGo: 11%

Results for CC(=O)c1cc(F)c(N2CCN(CCC#N)CC2)cc1C ?
MARV entry inh: 0%; Cruzain noTriton: 3%; Cruzain inh Det: -1.9%; Lassa entry inh: 2%; SARS PLP yeast: -16%; RE007 growth inh: -7%; NS1 function inh: 12%; 2A StopGo: 8%

Results for CC1(CCc2ccccc2)NC(=O)N(CC(=O)Nc2ccc(OC(F)F)cc2)C1=O (stereo not drawn) ?
MARV entry inh: 1%; Lassa entry inh: -40%; SARS PLP yeast: -4%; RE007 growth inh: 0%; 2A StopGo: inconclusive

How did Cn1nc(C(=O)Nc2cccc(C(F)(F)F)c2)ccc1=O do in these assays?
MARV entry inh: -6%; Cruzain noTriton: 2%; Cruzain inh Det: 3.3%; Lassa entry inh: -1%; SARS PLP yeast: -5%; RE007 growth inh: 93%; NS1 function inh: -14%; 2A StopGo: -9%

How did Cc1cc(C)c[n+](CC(=O)c2cc3ccccc3oc2=O)c1 do in these assays?
MARV entry inh: 4%; Cruzain noTriton: 2%; Cruzain inh Det: -14%; Lassa entry inh: 18%; SARS PLP yeast: 2%; RE007 growth inh: -11%; NS1 function inh: 18%; 2A StopGo: 0%

Results for Cc1ccc(-n2nc(C)c(C(=O)O)c2-n2cccc2)cc1 ?
MARV entry inh: 11%[46.1 µM]; Cruzain noTriton: 1%; Cruzain inh Det: -2.9%; Lassa entry inh: inconclusive; SARS PLP yeast: 2%; 2A StopGo: -21%

What do the screens show for `Cc1cc(C(=O)COC(=O)c2ccc(O)cc2O)c(C)n1-c1ccccc1`?
MARV entry inh: inconclusive; Lassa entry inh: 11µM*; SARS PLP yeast: 1%; RE007 growth inh: -21%; 2A StopGo: -22%

How did COc1ccc(CN2CC(C(=O)NCCc3ccc(Cl)cc3)CC2=O)cc1 (stereo not drawn) do in these assays?
SARS PLP yeast: 4%; RE007 growth inh: -1%; NS1 function inh: -8%; 2A StopGo: -12%

How did O=C(COC(=O)CCCOc1ccc(Cl)cc1Cl)NCc1ccccc1 do in these assays?
MARV entry inh: 4%; Cruzain noTriton: 6%; Cruzain inh Det: -7.4%; Lassa entry inh: -23%; SARS PLP yeast: -1%; RE007 growth inh: 3%; NS1 function inh: -28%; 2A StopGo: inconclusive

What do the screens show for `Cn1ncc2c(=O)n(/N=C/c3ccccc3)cnc21`?
MARV entry inh: 1%; Cruzain noTriton: 5%; Cruzain inh Det: -0.1%; Lassa entry inh: -3%; SARS PLP yeast: 10%; RE007 growth inh: -7%; NS1 function inh: 5%; 2A StopGo: 0%

How did Cc1ccccc1OC(C)C(=O)NCCC1=CCCCC1 (stereo not drawn) do in these assays?
MARV entry inh: -10%[46.1 µM]; Lassa entry inh: -3%[46.1 µM]; SARS PLP yeast: -1%; RE007 growth inh: -5%; NS1 function inh: -16%; 2A StopGo: -17%
